# Ab BasE inh: BasE siderophore biosynthesis inhibition; inhibition, % (concentration not given with the values); purified BasE, fluorescence polarization binding displacement; actives 0.1% (n = 84,000);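 active = both replicates above 25% with normal brightness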;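 also: 0% = negative plate control signal and 100% = positive plate control signal; stock transfer was 100 nL into about 30 µL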
# LANA-nucl inh: LANA-nucleosome interaction inhibition. FITC-LANA1-23 / chicken nucleosome fluorescence polarization; stronger effect = lower value. z-score (test concentration not listed). actives 0.3% (n = 51,000);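 active = both repeat wells score below -2 in polarization z-score versus plate sample wells, excluding overly bright wells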;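 also: 100 nL library stock added to about 30 µL; numbers are from one replicate; some results filed as inactive read as strong as hits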
#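 Test system: purified chicken nucleosomes with FITC-labelled LANA N-terminal peptide (1-23); Input: 240 nM purified chicken nucleosomes (480 nM peptide binding sites), final; Medium: TEN-BT buffer, pH 7.5; Timing: 10–45 min, room temperature; Technique: fluorescence polarization, 480 nm excitation, 535 nm parallel and perpendicular emission; Replication: duplicates.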
# Active calls of the source: *; nt = not tested or not shown; & = joins results of further samples.
SMILES,Ab BasE inh,LANA-nucl inh
O=C(NCc1ccco1)C1(c2ccccc2)CCCC1,1.4,-1.13
CN1C(=O)/C(=C/c2cccn2C(C)(C)C)C(=O)NC1=S,1.2,-0.0575
Cn1c(=O)n(C)c2cc(N3CCOCC3)c(N)cc21,-0.5,1.52
O=C(O)C1Cc2c([nH]c3ccccc23)C2(CCCCC2)N1 (configuration not stated),0.9,-0.0965
CCOC(=O)c1cccc(NC(=O)NCc2noc3ccccc23)c1,-1.6,-0.21
Cc1nc(-n2cccc2)sc1C(=O)N/N=C/c1ccccc1Cl,0.5,-1.17
Cc1c(C(=O)N/N=C/c2ccccc2)sc(=S)n1C,0.9,0.661
CC(NC(=O)Nc1ccccc1)C(=O)O (configuration not stated),0.8,nt
COc1cccc(NC(=O)COc2ccc(N3CC(C(=O)NCC(C)C)CC3=O)cc2)c1 (configuration not stated),0.2,nt
CSc1ncc(C(=O)N(C)Cc2ccc3c(c2)OCO3)n1-c1ccccc1,1.7,nt
COc1c(C)c2c(c(O)c1C/C=C(\C)CCC(=O)OCCN1CCOCC1)C(=O)OC2,nt,2.11
CCOC(=O)c1oc2ccccc2c1COC(=O)CNS(=O)(=O)c1ccc2c(c1)OCCCO2,-1.0,nt
Cc1cc(C)nc(N2CCC(C(N)=O)CC2)n1,-0.2,-0.472
CN(C1CCCCC1)S(=O)(=O)c1ccccc1NC(=O)Cn1cnc2ccccc21,0.3,nt
O=C1CCCCCN1C(=O)c1ccccc1,2.1,nt
CCOc1ccc2nc(SCC(=O)c3ccc(C)s3)sc2c1,1.0,-0.555
O=C(c1cccc2c1-c1ccccc1C2)N1CCCCC1,2.1,nt
O=C(COc1ccc(Br)cc1)N1CCOCC1,-1.5,-0.663
Cc1cc(C(=O)Nc2ccc(CC(=O)O)cc2)cs1,-2.0,0.1
COC1(OC)c2nonc2C(OC)(OC)c2nonc21,2.3,0.305
Cc1ccc(C)c(N2CCN(CCCNC(=O)c3nc(-c4cccnc4)no3)CC2)c1,0.1,-0.602
CN/C(=C\[N+](=O)[O-])NCCSCc1ccc(CN(C)C)o1,0.1&-0.5,-0.351&-0.627&0.474
COC(=O)c1ccc(COC(=O)c2ccc3c(c2)S(=O)(=O)N=C2CCCCCN23)o1,-1.6,nt
C[C@H]1[C@H](C)CC[C@]2(C(=O)O)CC[C@]3(C)C(=CCC4[C@@]5(C)CC[C@H](O)C(C)(C)[C@@H]5CC[C@]43C)[C@H]12 (some centres not stated),-4.8,0.642
CN(C)C(=O)n1c(SCc2ccccc2)nnc1-c1ccc(C(C)(C)C)cc1,5.5,nt
Cc1cc(C(=O)CO/N=C/c2ccco2)c(C)n1C,-0.1,nt
O=C1CN(C(=O)CSc2ncnc3ccccc23)c2ccccc2N1,-4.5,nt
CCNc1nc(Oc2ccc(C(=O)OC)cc2)nc(SC)n1,-0.3,nt
COc1ccc(CC(C)CC(=O)Nc2ccc(I)cc2)cc1 (configuration not stated),1.0,nt
COc1cc(C(=O)N=c2c(C#N)cc3c(=O)n4cccc(C)c4nc3n2C(C)C)cc(OC)c1OC,-0.4,nt
O=C(Nc1ccc(OCC(F)(F)C(F)F)c(C(F)(F)F)c1)c1ccccc1O,1.2,0.581
O=C(Nc1ccc(C(=O)N2CCCCC2)cc1)C1=CSCCO1,2.6,-0.641
Cc1cc(C(=O)CSc2nc3ccccc3o2)c(C)n1CC1CCCO1 (configuration not stated),1.6,nt
S=C(NCC1CCCO1)N1CCn2c(nc3ccccc32)C1 (configuration not stated),0.3,1.91
CCOC(=O)c1cc(-c2ccnn2S(=O)(=O)c2cccc(C(F)(F)F)c2)on1,6.2,nt
O=C(CSCc1nnc(-c2ccc(F)cc2)o1)Nc1ccccc1F,-2.6,nt
Cc1cc(=O)oc2c1c(C)nn2C,-0.6,0.556
Cc1c(C(=O)NN2CCN(C)CC2)oc2ccccc12,1.5,0.637
CCOc1ccc(N(CC)C(=O)NC2CC(=O)N(c3ccc(OC)cc3)C2)cc1 (configuration not stated),0.1,-1.3
O=S(=O)(/N=C/c1ccco1)c1cccs1,0.0,0.032
O=c1c(-c2cc(F)ccc2F)c(O)nc2n1CCCC2,2.9,0.296
O=C(NCC(c1ccco1)N1CCCCC1)C1(c2ccccc2)CC1 (configuration not stated),0.4,nt
CC1CC(NC(=O)/C(C#N)=C/c2ccc[nH]2)CC(C)(C)C1 (configuration not stated),-0.2,-0.929
CN(C)C(=O)N1CCN(S(=O)(=O)c2ccccc2)C1,1.8,-0.224
COCCn1c(C)cc(-c2csc(NCc3ccc(C)cc3)n2)c1C,-1.2,nt
N#CC1(c2ccccc2)N=C2C=CC=CN2N=C1c1ccccc1 (configuration not stated),1.8,nt
CC1=[N+]([O-])C(C)(C)C(c2cccs2)=[N+]1[O-],4.8,-0.208
CC(=O)N(Cc1cc2ccc(C)cc2[nH]c1=O)CC1CCCO1 (configuration not stated),0.9,0.22
COc1ccc(CN(CCN(C)C)Cc2ccccc2)c(OC)c1,-3.7,-0.275
COc1ccc(C2=NN3C(C2)c2ccccc2OC32C(=O)Nc3ccccc32)cc1 (configuration not stated),2.3,-0.793
# Continued.
SMILES,Ab BasE inh,LANA-nucl inh
CC(C)(C)SCCNc1nc(Sc2ccc(Cl)cc2)nc(N2CCSCC2)n1,-0.1,nt
COc1ccc(NC(=O)C(CC(C)C)NS(=O)(=O)c2ccc3[nH]c(=O)oc3c2)cc1 (configuration not stated),-1.6,2.18
CCOC(=O)C(C)Oc1cc2oc(=O)c3c(c2cc1Cl)CCCC3 (configuration not stated),2.1,nt
COc1ccc(NC(=O)CN2CCCC2)cc1,-2.0,2.5
CC(C)=CCCC1=CCC2C(=O)NNC(=O)C2C1 (configuration not stated),1.6,-1.05
COc1ccccc1NS(=O)(=O)c1ccc(NC(=O)CCN2C(=O)C3CC=CCC3C2=O)cc1 (configuration not stated),2.2,nt
CCCCNc1c(C(=O)OCC)c(C)nc2c1cnn2CC,-2.6,-0.493
CC(C)N(Cc1ccccc1)C(=O)CSc1nc(C(C)(C)C)nc2c1c(=O)n(C)c(=O)n2C,-0.1,nt
CC(C)NCC1CCCO1 (configuration not stated),-2.1,1.13
O=S(=O)(Nc1nc2ccccc2nc1Sc1nc2ccccc2o1)c1ccccc1,0.6,nt
O=C(NN=C1CCCC1)c1ccc2c(c1)OCO2,-4.3,nt
O=C1CCN(C(=S)NCc2ccccc2)CC1,3.7,nt
CN(C)S(=O)(=O)c1cccc(-c2cn3cc(Cl)ccc3n2)c1,-6.4,0.429
COc1ccc(C(=O)OCN2C(=O)c3ccccc3C2=O)cc1,4.7,0.68
Cc1oc(-c2ccccc2)nc1CSc1nc2ncccc2o1,3.7,0.303
S=c1[nH]nc2ccccn12,-1.2&5.4,1.63
Cc1ccc2nc(CSc3nnc(-c4cccs4)n3CC3CCCO3)cc(=O)n2c1 (configuration not stated),-0.3,nt
COC(=O)/C=C/c1ccc(Br)cc1,nt,0.382
O=C(NC(Nc1ccc(Cl)cc1)C(=O)c1ccccc1)c1ccccc1 (configuration not stated),0.9,nt
COc1cc(NC(=O)CN2CCCCCC2=O)c(OC)cc1Cl,-0.1,nt
CN(Cc1nc2ccccc2c(=O)[nH]1)C(=O)c1nn(Cc2ccccc2)c(=O)c2ccccc12,1.4,nt
NC(=O)c1oc2ccccc2c1NC(=O)Cc1ccc(Cl)cc1,1.6,-2.23
Cc1cc(C(=O)COC(=O)CCc2nc3ccccc3s2)c(C)n1CC1CCCO1 (configuration not stated),0.2,nt
CCOC(=O)C1CCCN(c2cc(Nc3ccc4c(c3)OCO4)c3c4c(onc24)-c2ccccc2C3=O)C1 (configuration not stated),-8.5,1.01
CCCC(=O)N1CC2(C)CN(C(=O)CCC)CC(c3ccccc3)(C1)C2=O,-2.5,0.427
CCOc1cc(C#N)cc(Cl)c1O,0.8,nt
Cc1cc(C)c2c(=O)cc(C(F)(F)C(F)F)oc2n1,-2.6,2.49
C=CCn1c(N)c(C(N)=O)sc1=S,1.0,0.927
C[N+]1(CCOC(=O)Nc2ccccc2)CCCCC1,-0.8,nt
COc1ccc(OC)c(/C=N\NC(=O)C2C(=O)NCC2c2ccccc2)c1 (configuration not stated),0.3,-0.351
CCn1nnc(N(C(=O)c2cccs2)C(=O)c2cccs2)n1,0.9,0.0145
O=c1c2[nH]c(=S)[nH]c2cnn1-c1ccccc1,1.2,-0.335
COc1ccc(Cn2c(=O)[nH]c3cc(C(=O)NC4CCCCC4C)ccc32)cc1 (configuration not stated),0.0,-0.099
CC(C)(C)NC(=O)NC(=O)CN1CCN(S(=O)(=O)/C=C/c2ccccc2)CC1,1.1,nt
N#Cc1c(Cl)cccc1NCC1(N2CCOCC2)CCCCC1,2.5,nt
COC(=O)CC1C(=O)NCCN1C(=O)c1ccc2c(c1)S(=O)(=O)c1ccccc1C2=O (configuration not stated),1.5,nt
CC(=O)Nc1ccc(C2Nc3cc(C)ccc3O2)cc1 (configuration not stated),0.5,nt
O=C1CC(c2cccs2)SC(N(c2ccccc2)c2ccccc2)=N1 (configuration not stated),-0.7,nt
Cc1ccc(N2CC(C(=O)Nc3c(C(N)=O)oc4ccccc34)CC2=O)cc1 (configuration not stated),-0.8,-0.958
O=C(O)c1ccc(CS)cc1,4.3,nt
CC(C)NCC(O)c1cc(O)cc(O)c1 (configuration not stated),0.0&-0.6,-0.361&0.0285&0.621
CC(C)c1ccc(C=NCCO)cc1,1.9,0.126
O=C1c2cccnc2C(=O)N1Cc1ccc(S(=O)(=O)N2CCCCCC2)cc1,2.0,0.158
COc1ccc(S(=O)(=O)N2CCC(O)(c3cccnc3)CC2)cc1OC,-0.4,0.81
C/C(=C\C(=O)c1ccc(Cl)cc1)Nc1ccncc1,-0.3,-0.639
Cc1cccc(-c2noc(CSc3ccccc3)n2)c1,-0.7,0.327
COc1ccc(C(=O)CNc2cccc(F)c2)cc1,0.7,nt
COc1ccc(NC(=O)CN(C)C(=O)c2ccc(S(=O)(=O)N3CCOCC3)cc2)cc1,-0.3,nt
CSc1nc(C)cc(SCCOc2ccccc2)n1,3.2,0.701
CCC(CC)C(=O)Nc1cccc(NC(C)=O)c1,0.6,0.435
# Further records follow:
SMILES,Ab BasE inh,LANA-nucl inh
CCn1c(COc2ccccc2C(C)C)nnc1SCc1nc2ccccc2c(=O)[nH]1,-3.1,0.489
COc1ccc(CCNC(=O)c2ccc(N(C)S(C)(=O)=O)cc2)cc1,-3.7,1.57
Oc1c(N=Nc2ccc3c(c2)OCO3)sc2ccccc12,0.0,nt
CCCc1cc(=O)n2[nH]c(-c3ccc(I)cc3)cc2n1,-5.6,1.8
COc1ccc(CCNC(=O)C2CC2(c2ccc(C)cc2)c2ccc(C)cc2)cc1OC (configuration not stated),-0.7,nt
COc1ccc(-c2nn(-c3ccccc3)cc2C(=O)N(C)C)cc1,-5.0,nt
O=C(NCCCN1CCOCC1)c1cnn2c(C(F)(F)F)cc(-c3ccccc3)nc12,1.4,-0.172
NC(=O)C1CCCc2c1[nH]c1ccccc21 (configuration not stated),0.1,-0.058
CCNCc1c(C(=O)O)c(C)n(Cc2ccc(Cl)cc2)c1C,-0.7,2.58
N#Cc1cnn(-c2ccccc2)c1NC(=O)CN(Cc1ccccc1)Cc1ccccc1,2.9,-0.227
C#CCn1c(=NC(=O)C(C)C)sc2c(C)cc(C)cc21,-1.9,-0.24
COc1ccc(-c2cc(C(=O)N3CCCC3)c3ccccc3n2)cc1,-4.0,nt
CC1CCN(CC(=O)Nc2nccs2)CC1,1.7,-1.2
C=CCC(C(=O)OC)N1CCCCC1 (configuration not stated),2.4,-0.616
CN1CCCN(C(=O)c2ccc(S(=O)(=O)N(C)C)cc2)c2nc3ccccc3nc21,0.5,nt
CCn1c(C)c(C2=CCN(S(=O)(=O)c3cccc4nsnc34)CC2)c2ccccc21,-1.2,-0.167
COc1ccc(-c2nc3scc(CCNC(=O)Cc4ccccc4)n3n2)cc1,-2.0,0.659
CCOC(=O)c1c(C)[nH]c(C(=O)C(C)Sc2nncn2C(C)C)c1C (configuration not stated),-2.6,nt
O=C(N/N=C/c1ccco1)C12CC3CC(CC(C3)C1)C2,3.5,nt
N#Cc1ccccc1CSc1nnc2c(Cl)cc(Cl)cn12,1.4,nt
COc1ccc(-n2cc(C(=O)NCC3Cc4ccccc4O3)nn2)cc1 (configuration not stated),0.7,0.918
Cc1cccn2cc(CNC(=O)CC(C)(C)C)nc12,0.0,1.45
Cc1nnsc1C(=O)Nc1ccccc1C(F)(F)F,-3.6,1.37
Cc1ccc(/C=C/C(=O)N2CCN(c3cccc(C)c3C)CC2)cc1,-0.2,-0.459
NS(=O)(=O)c1ccc(CCNC(=O)CN2CCNC(=O)C2)cc1,-0.3,nt
CCC(C)Nc1nc(Cl)nc(N(C#N)CN2C(=O)c3ccccc3S2(=O)=O)n1 (configuration not stated),2.4,0.287

# A portion of the library. The share of hits here may be higher or lower than overall.
